# Compound activity: PubChem BioAssay, several laboratories
# rRNA inh HTS: inhibits bacterial ribosomal RNA function over humanized ribosomes. GFP signal change (wild-type ribosome), % (concentration not given with the values). hit rate 1.6% among 350,000. AID 720706. E. coli WT GFP vs humanized-ribosome RFP mutants, fluorescence, 24 h; hits give low values; DMSO median 0, no signal -100;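 active = significant combined selectivity score with lowered wild-type GFP, culture density cut under 30%, mutant RFP and density less affected; inactive = any of these conditions unmet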; also: one replicate is shown; some compounds called inactive have numbers as strong as hits
# Vif A3G: inhibitors of Vif binding to APOBEC3G peptide, primary screen, biochemical, TR-FRET, GST-Vif 1-94, biotin-A3G peptide, dose response retest (AID 1117319); inhibition, %, or IC50 in µM where a hit was titrated; TR-FRET GST-Vif / biotin-A3G peptide binding; higher % means a stronger effect; test concentration not given here; strong numbers were not always called active; hit rate 0.57% among 260,000;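 active = above the screen mean plus three standard deviations and confirmed in dose response; inconclusive = results disagree or hit not tested in dose response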;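 also: Vif residues 1-94 fused to GST binding biotinylated APOBEC3G peptide 110-148; 0% = full assay without inhibitor and 100% = GST in place of GST-Vif; retest series ran down from 100 µM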
# ALR H2O2 inh: blocks human ALR sulfhydryl oxidase activity; purified ALR, DTT oxidation, H2O2 HRP-luminol luminescence; inhibition, % (test concentration not listed); hit rate 3.8% among 290,000; AID 485317;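 active = mean and each replicate at 75% or more; inconclusive = only one of the two met; inactive = neither met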;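 also: stock transfer was 7.5 nL into about 7.5 µL; 0% = neutral wells and 100% = wells with inactivated enzyme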
# Target sequence (P55789 whole entry, looked up): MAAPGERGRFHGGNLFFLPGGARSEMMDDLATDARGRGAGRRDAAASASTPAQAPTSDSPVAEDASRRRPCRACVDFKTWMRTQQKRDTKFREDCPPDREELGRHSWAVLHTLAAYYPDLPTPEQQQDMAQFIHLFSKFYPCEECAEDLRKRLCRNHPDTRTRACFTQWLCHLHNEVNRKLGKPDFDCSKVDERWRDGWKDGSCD
# HNF4A DNA FP: change in binding of human HNF4 alpha to DNA | activity change, % at 10 µM | P41235 | hit rate 0.3% among 360,000 | HNF4a-FITC DNA binding, fluorescence polarization, 1 h | AID 1224865; in the data active = activity change above about 30%, passing the limit was not always enough;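 also: controls were the assay level and a saturating level of protein; the project sought stronger binding though the title names inhibitors; some compounds called inactive have numbers as strong as hits; positive values seem to mean higher polarization but the record does not say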
# Target sequence (P41235 whole entry, looked up): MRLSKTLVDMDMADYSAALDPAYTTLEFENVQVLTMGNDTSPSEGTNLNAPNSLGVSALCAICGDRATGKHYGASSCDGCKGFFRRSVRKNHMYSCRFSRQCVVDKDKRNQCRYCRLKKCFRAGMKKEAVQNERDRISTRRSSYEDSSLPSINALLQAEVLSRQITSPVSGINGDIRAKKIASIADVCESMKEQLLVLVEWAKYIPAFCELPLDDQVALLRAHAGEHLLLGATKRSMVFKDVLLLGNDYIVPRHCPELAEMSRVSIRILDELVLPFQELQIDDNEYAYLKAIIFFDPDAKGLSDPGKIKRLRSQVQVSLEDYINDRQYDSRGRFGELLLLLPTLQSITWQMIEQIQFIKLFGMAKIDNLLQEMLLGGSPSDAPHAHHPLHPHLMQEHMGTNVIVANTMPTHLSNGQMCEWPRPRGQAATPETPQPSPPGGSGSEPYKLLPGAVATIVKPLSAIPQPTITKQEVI
# MLL AF4-AF9 inh: MLL-AF4/AF9 protein interaction inhibition; AlphaScreen, biotin-AF4 peptide binding to FLAG-AF9; AID 651704; P42568; inhibition, % at 10 µM; hit rate 0.47% among 350,000;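 active = every replicate reaching a set inhibition limit, whatever the replicate mean, cut at about 25% in these data; inconclusive = mean inhibition reaches that limit but some replicates miss it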;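 also: 0% = plate neutral control median and 100% = total signal loss; the record names both 10 and 1 µM as test concentration; the first replicate is given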
# FGF22 binding: binders of recombinant human FGF22 by thermal shift | calls only at 9.99 µM | hit rate 1.5% among 340,000 | Q9HCT0 | SYPRO orange fluorescence; percent of sucrose octasulfate shift, DMSO zero;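 active = melting point raised past a set limit in the mean and every replicate; inconclusive = no clear call; three in four hits are not shown here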
# Target sequence (Q9HCT0 whole entry, looked up): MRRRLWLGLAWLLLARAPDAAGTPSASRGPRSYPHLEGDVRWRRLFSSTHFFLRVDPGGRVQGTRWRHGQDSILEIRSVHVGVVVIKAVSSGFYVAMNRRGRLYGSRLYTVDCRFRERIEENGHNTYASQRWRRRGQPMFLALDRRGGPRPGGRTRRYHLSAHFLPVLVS
# Ecoli growth: inhibitors of Escherichia coli growth. OD600, 23 h; hits give low values. OD600 absorbance (concentration not given with the values). hit rate 0.21% among 330,000;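 active = OD600 absorbance below the run mean of sample wells minus 3.6 SD, in any replicate, cut at about 0.56 in these data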;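 also: stock transfer was 300 nL into about 60 µL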
# rRNA inh HTS OD600: second read-out of rRNA inh HTS, no call of its own (marks repeat the call); OD600 change, %; measured here: OD600 growth;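 optical density of the mix in the first replicate; 0 = DMSO median and -100 = no signal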
# rRNA inh HTS RFP: recorded beside rRNA inh HTS, whose call it bears; RFP signal change, %; measured here: RFP humanized mutant strains;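 first replicate; 0 = DMSO median and -100 = no signal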
# The depositor's hits bear a star; i = inactive; ? = inconclusive; . = not tested or not shown. Not all compounds are listed; the hit share may differ from the screen's.
HNF4A DNA FP	ALR H2O2 inh	SMILES	MLL AF4-AF9 inh	FGF22 binding	rRNA inh HTS OD600	Ecoli growth	rRNA inh HTS RFP	Vif A3G	rRNA inh HTS
2.3	-4	CCCN1CCN(c2ncnc3c2nnn3Cc2ccccc2)CC1	.	.	.	0.72	.	28%	.
.	.	CC(C)C#Cc1cnc2c(c1)C(=O)N([C@H](C)CO)C[C@H](C)[C@H](CN(C)C(=O)c1ccc3c(c1)OCO3)O2	-3.3	i	0	.	-0.7	.	-2
-2.8	.	COc1ccc(CC(=O)OCC(=O)NC2CCCCCC2)cc1OC	11	i	3	0.71	-0.4	1%	2
0.8	-2	COc1ccc(S(=O)(=O)N2CCOC23CCN(C(=O)c2ccccc2OC)CC3)cc1	-18	i	-6	0.67	-1.4	-7%	-1
-0.7	-25	COc1ccc2nc(-c3ccccn3)[nH]c2c1	4.6	i	7	0.66	1.5	8%	-1
2.4	0	Cn1nnnc1SCc1c(F)cccc1F	.	.	.	0.73	.	1%	.
.	.	O=C(C[C@H]1CC[C@@H](NC(=O)Nc2cccc(F)c2)[C@@H](CO)O1)NCC1CCCCC1	-0.5	i	-6	.	-0.7	.	-3
4.8	-45	O=C(NC(=S)Nc1c(Cl)ccc2nsnc12)c1ccco1	6.9	i	.	0.73	.	32%	.
-2.9	0	CS(=O)(=O)c1ccc([C@@H](O)[C@@H](CO)NC(=O)C(Cl)Cl)cc1	-0.1	i	.	.	.	.	.
0.4	-1	CC(C)=CCN1CCNC(=O)C1CC(=O)NCc1nc(C)c(C)s1 (stereo not drawn)	-2.4	i	17	0.65	7.7	.	14
2.5	-6	COc1ccc(NS(=O)(=O)c2ccc3c(c2)oc(=O)n3C)c(OC)c1	-2.5	i	7	0.72	0.9	-8%	11
4.4	.	C=CCOc1nc(-c2ccccc2Cl)nc2ccccc12	-3.5	i	.	0.64	.	.	.
-2.9	32	C=CCC(C(=O)OC)(C(=O)OC)c1ccccc1[N+](=O)[O-]	-0.6	i	-4	0.69	-2.7	-3%	6
-2.9	9	O=C(O)c1ccccc1/C=N/NC(=S)NC1CCCCC1	6.4	i	4	.	4.3	-1%	-1
-3.6	.	Nc1sccc1C(=O)NCCN1CCOCC1	.	i	8	.	12	.	4
0.5	-2	Cn1nc(C(=O)OCC(=O)NCCc2ccccc2)c2ccccc2c1=O	-1.1	i	14	0.69	-0.5	9%	9
-2.0	-8	Cn1ccc(NC(=O)c2ccc([N+](=O)[O-])cc2)n1	1.4	i	4	0.69	-0.1	-1%	-11
0.5	-2	COc1ccc([C@H]2CC(=O)C=C(/C=C/c3ccccc3)C2)cc1OC	29*	i	-18	.	0.3	.	-17
.	.	COc1ccc(NC(=O)N(C)C[C@@H]2OCCCC[C@H](C)Oc3ccc(NS(=O)(=O)c4cccs4)cc3C(=O)N([C@@H](C)CO)C[C@@H]2C)cc1	-13	i	-5	.	0.4	.	-6
0.7	.	CCOc1ccc(Cl)cc1-c1cc(C(=O)NCc2ccccc2OC)[nH]n1	-0.4	i	-12	.	8.5	.	-8
0.0	.	CCOC(=O)N1CCN(CC(=O)Nc2cccc(Br)c2)CC1	.	.	3	0.69	1.0	-5%	6
-0.9	.	CC1=C(C(=O)OCc2ccccc2)C(c2ccc([N+](=O)[O-])cc2)NC(=O)N1CCCC(=O)O (stereo not drawn)	-0.3	i	5	0.69	-4.0	.	-4
.	.	COc1ccc(NC(=O)Nc2ccc3c(c2)CC(=O)N([C@@H](C)CO)C[C@H](C)[C@H](CN(C)Cc2ccc(C(=O)O)cc2)O3)cc1	-1.7	i	2	.	-3.3	.	2
-1.8	-3	Cc1ccc(NC(=O)CN2CCN(Cc3ccccc3)CC2)cc1F	2.5	i	8	0.64	-1.1	.	3
0.5	-11	Cc1csc(NC(=O)C2CCC(C)(C(=O)O)C2(C)C)n1 (stereo not drawn)	.	.	.	0.68	.	18%	.
-0.1	-9	Cc1nc2cc(NS(=O)(=O)c3cccc4cccnc34)ccc2s1	-1.3	i	-12	0.63	-2.9	.	-5
-0.1	2	O=C(NNC(=O)C1CC(c2cccs2)=NO1)NC1CCCCC1 (stereo not drawn)	-0.6	i	2	0.63	-0.2	0%	6
.	2	CCN1C(=O)/C(=C\c2ccc(-c3cccc(C(=O)OC)c3)o2)SC1=Nc1ccc(C(=O)O)cc1	-15	i	5	.	-1.1	.	-5
-2.0	-5	Cc1ccc(F)cc1NC(=O)c1sc2ncn(CC(=O)N3CCN(c4ccccn4)CC3)c(=O)c2c1C	-0.7	i	17	0.69	0.2	.	11
0.5	4	C/C(=N\NC(=S)NC1CCCCC1)c1c(F)cccc1F	12	i	-78	.	-18	-5%	-56
0.6	.	CC(C)N(CCNC(=O)c1ccc(NC2=NC3CS(=O)(=O)CC3S2)cc1)Cc1ccco1 (stereo not drawn)	3.6	i	2	0.8	2.3	.	2
-2.8	1	CCCOC(=O)C1=C(C)NC(=O)NC1c1ccc(Br)s1 (stereo not drawn)	0.8	i	8	0.67	3.6	3%	10
7.2	-2	COc1ccc(N(C(=O)c2ccncc2)S(=O)(=O)c2ccc(F)cc2)cc1	3.4	i	3	.	0.2	2%	2
-4.0	9	CCCN1C2CCCC1CC(NC(=O)c1ccccc1F)C2 (stereo not drawn)	.	.	.	0.66	.	-3%	.
2.7	-4	NS(=O)(=O)c1ccc(N2CCN(C(=O)c3ccco3)CC2)nc1	2.9	i	12	0.71	-5.3	.	4
.	.	CC(C)c1cn(CC[C@H]2CC[C@H](NS(=O)(=O)c3ccc(F)cc3)[C@H](CO)O2)nn1	-0.3	i	8	.	0.2	.	-4
1.4	.	Cc1nn(C)c(Cl)c1CN1CCN(C2CCCCC2)C(CCO)C1 (stereo not drawn)	-4.5	i	12	0.64	2.4	3%	10
-0.6	0	O=C(COC(=O)c1ccccc1NC(=O)c1ccco1)NC1CCS(=O)(=O)C1 (stereo not drawn)	-0.6	i	0	0.69	-0.6	15%	1
4.3	-13	CCNC(=O)C1CC(=O)N(Cc2ccc3c(c2)OCO3)C(=Nc2ccc(OCC)cc2)S1 (stereo not drawn)	.	.	.	0.71	.	-2%	.
3.9	.	C[C@@H]1OC(C2CCCCC2)N(C)[C@H]2C[C@H]3c4[nH]c5ccccc5c4CCN3C[C@@H]12 (stereo partly drawn)	14	i	-57	.	12	.	-46
2.4	-3	Cc1sc(NC(=O)Cc2ccc3c(c2)OCO3)nc1-c1ccc2c(c1)CCN2C(=O)c1ccccc1F	.	.	.	0.7	.	.	.
4.1	-1	Cc1ccc(C)c(N2CCN(C(=O)Cn3cccc3)CC2)c1	.	.	.	0.66	.	?	.
-1.8	-9	CCOC(=O)C(NC(=O)NCc1cccc(C(F)(F)F)c1)(OCC)C(F)(F)F (stereo not drawn)	-1.6	i	-4	0.67	-1.5	6%	1
-1.1	16	O=S(=O)(Nc1cccc2ccccc12)c1cccs1	-0.6	i	-31	0.74	-2.4	-7%	-2
-4.1	61	CSc1cccc(NC(=O)CN(c2ccccc2)S(=O)(=O)N(C)C)c1	.	.	.	0.71	.	3%	.
.	.	COc1ccccc1NC(=O)N1C[C@H]2[C@@H](c3ccccc31)[C@H](CO)N2C(=O)C1CC1	-16	i	-2	.	-0.5	.	1
6.8	-15	CSc1cccc(NC(=O)CN(C2CCCCC2)S(C)(=O)=O)c1	.	.	.	0.7	.	-1%	.
-2.0	.	CCOCc1nnc(NC(=O)c2c(-c3ccccc3)noc2C)s1	-7.1	i	12	0.64	0.3	.	3
4.3	.	CC(C)CC(N)c1csc(NC(=O)C(c2ccccc2)c2ccccc2)n1 (stereo not drawn)	16	i	-82	.	-21	.	-60
2.3	-23	COc1ccc(-n2nc3c(c2NC(=O)c2cc4ccccc4o2)CS(=O)(=O)C3)cc1	-6.0	i	-30	0.73	-2.1	.	-7

# Remaining list, next part.
HNF4A DNA FP	ALR H2O2 inh	SMILES	MLL AF4-AF9 inh	FGF22 binding	rRNA inh HTS OD600	Ecoli growth	rRNA inh HTS RFP	Vif A3G	rRNA inh HTS
-0.9	-6	CCOc1ccccc1N1CCN(C(=O)NCc2ccc(C)cc2)CC1	8.5	i	1	0.68	-1.3	.	-4
3.3	.	CCCCCCCCCCC(C(=O)O)C1(C(=O)O)CCC(=O)O1 (stereo not drawn)	-2.3	i	.	.	.	.	.
2.2	0	CNc1ncc(C(=O)C(C)(C)C)s1	.	.	.	0.71	.	-4%	.
47*	-7	COc1cccc(/C=C2\SC(=S)N(CCCC(=O)Nc3cc(C)on3)C2=O)c1	-2.1	i	5	0.75	3.1	.	19
.	.	CCCC#Cc1cnc2c(c1)C(=O)N([C@H](C)CO)C[C@H](C)[C@@H](CN(C)C(=O)C1CCOCC1)O2	-4.5	i	6	.	-3.0	.	0
-6.6	1	O=C(O)c1ccccc1-c1csc(-c2ccccc2)n1	-7.2	i	2	0.65	-2.0	-6%	-1
3.8	.	CN(C)CCNC(=O)c1cccc(-c2cnc3c(NC=O)cc(-c4cccs4)cn23)c1	17	i	4	.	5.2	.	1
-0.2	-1	CC(C)NS(=O)(=O)c1ccc(OCC(=O)NC(C)c2ccccc2)cc1 (stereo not drawn)	-3.3	i	-3	0.69	-4.2	10%	0
3.5	-1	CN(C)S(=O)(=O)c1ccc(Cl)c(NC(=O)CNC2(C)CCS(=O)(=O)C2)c1 (stereo not drawn)	-2.3	i	9	0.62	-1.2	-5%	1
-1.7	1	O=S(=O)(CCN1C=CC(C(F)(F)F)=NCC1)c1ccc(Cl)cc1Cl	44*	i	.	0.66	.	30%	.

# The list goes on, starting with the last three of the part before.
HNF4A DNA FP	ALR H2O2 inh	SMILES	MLL AF4-AF9 inh	FGF22 binding	rRNA inh HTS OD600	Ecoli growth	rRNA inh HTS RFP	Vif A3G	rRNA inh HTS
-0.2	-1	CC(C)NS(=O)(=O)c1ccc(OCC(=O)NC(C)c2ccccc2)cc1 (stereo not drawn)	-3.3	i	-3	0.69	-4.2	10%	0
3.5	-1	CN(C)S(=O)(=O)c1ccc(Cl)c(NC(=O)CNC2(C)CCS(=O)(=O)C2)c1 (stereo not drawn)	-2.3	i	9	0.62	-1.2	-5%	1
-1.7	1	O=S(=O)(CCN1C=CC(C(F)(F)F)=NCC1)c1ccc(Cl)cc1Cl	44*	i	.	0.66	.	30%	.
-0.5	14	CCOC(=O)c1c(-c2ccc(C)c(C)c2)csc1NC(=O)C1CC=CCC1C(=O)O (stereo not drawn)	.	.	.	0.66	.	13%	.
2.4	-13	CCOC(=O)c1cnn(-c2nc(C)cc(C)n2)c1N	.	.	.	0.69	.	-3%	.
1.3	.	CC1CCc2nc3ccc(S(=O)(=O)N4CCC(C(=O)N5CCCCCC5)CC4)cc3c(C(=O)O)c2C1 (stereo not drawn)	?	i	16	0.67	17	.	25
-0.8	7	CCOc1ccc(C(=O)Nc2ncccc2Cl)cc1	-1.5	i	7	0.71	-1.9	.	5
1.9	9	CSc1nnc(NC(=O)c2nc(S(=O)(=O)Cc3cccc(C)c3)ncc2Cl)s1	-5.9	i	-8	.	2.2	.	4
-8.7	18	CCOC(=O)N1CCN(c2c(-c3ccc(C)c(C)c3)c(=O)c2=O)CC1	.	.	.	0.75	.	8%	.
.	.	CCCNC(=O)C[C@@H]1CC[C@@H]2[C@H](COc3ccc(NC(=O)c4ccc5c(c4)OCO5)cc3C(=O)N2C)O1	-1.0	i	-4	.	-2.4	.	-3
0.4	.	CCn1c(SCC(=O)Nc2oc(-c3ccccc3)c(-c3ccccc3)c2C#N)nnc1-c1ccco1	.	.	.	0.73	.	13%	.
-67	.	O=C1/C(=C/c2ccco2)SC(=S)N1c1cccnc1	-2.5	i	7	0.69	2.3	1.5µM*	3
2.8	5	COc1cccc(OCc2cc(C(=O)NC3CCOCC3)no2)c1	-1.4	i	3	0.65	-4.9	.	2
